High-throughput results: PubChem BioAssay, several laboratories
Bead autofluor – compound fluorescence in toxin protease inhibitor counterscreen; AID 624483; compound autofluorescence counterscreen, microsphere flow cytometry; hits give high values; 360,000 compounds, 3.1% hits; fluorescence intensity (no concentration beside the values);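 active means at least 3 SD above the mean of all compounds, about 16000 in these data; inconclusive means too few beads counted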;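 further: 100 nL of 1 mM stock went into each well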
Mtb hypoxia rep – inhibitors of hypoxia-regulated fluorescent reporter in Mycobacterium tuberculosis | M. tuberculosis hypoxia-regulated fluorescent reporter, fluorescence | fluorescence inhibition, % (test concentration not listed) | 300,000 compounds, 0.1% hits | AID 1159583;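 active means 35 to 45% if threefold the growth effect, above 45% if 1.5-fold the growth effect; inactive means the rest, general growth blockers included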;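 further: wells of about 50 µL received 100 nL stock; 0% = vehicle wells and 100% = reference inhibitor wells; whole bacteria with a GFP reporter of the hypoxia response; strong numbers were not always called active; many hits fall short of the cut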
ugtP null kill – growth inhibition of S. aureus ugtP deletion strain. S. aureus RN4220 ugtP deletion, OD600 growth, 16 h; some inactives read as strong as hits. growth inhibition, % (no concentration beside the values). 330,000 compounds, 0.54% hits. AID 1259309;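 active means z-score under -3 and OD600 up to 0.15 on both plates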;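 further: plate controls were untreated wells for no effect and antibiotic for full effect; wells of about 80 µL received 100 nL stock; the first replicate is given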
RN4220 kill – S. aureus RN4220 growth inhibition; OD600, 16 h; inhibition, % (no concentration beside the values); AID 1259311; 330,000 compounds, 0.33% hits;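 active means z-score of -3 or lower and OD600 up to 0.18 on both plates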;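 further: plate controls were untreated cells for no effect and reference antibiotic for full effect; stock transfer was 100 nL into about 80 µL; one replicate is shown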
PrP UTR inh – suppresses PrP 5' UTR mRNA reporter expression | inhibition, % (concentration not given with the values) | cell-based PrP 5' UTR mRNA reporter, plate reader | 340,000 compounds, 0.35% hits;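 active means every replicate at 50% or more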;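 further: 0 = median of the neutral control wells; tested in H4 reporter cells; numbers are from one replicate; inactives centre near -14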
BJeLR viability – kills HRASV12-expressing BJeLR cells; BJeLR (HRASV12) viability, CellTiter-Glo ATP luminescence, 48 h; reference of the scale not given here; inhibition, % (no concentration beside the values); 300,000 compounds, 0.17% hits; AID 1554;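 active means replicate mean above 50%; inconclusive means above 50% but judged a plate artefact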;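 further: 50 nL library stock added to about 25 µL; numbers are from one replicate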
Mtb hypoxia rep growth – further read-out of Mtb hypoxia rep, marked with its call; growth inhibition, %; measured here: M. tuberculosis growth (absorbance);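 0% = vehicle and 100% = reference antibiotic; read after six days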
An asterisk follows results filed as active; ? = inconclusive; nt = no result given. Random draw from the library (roughly 4.1% active in at least one column).

SMILES	Bead autofluor	Mtb hypoxia rep	Mtb hypoxia rep growth	ugtP null kill	RN4220 kill	PrP UTR inh	BJeLR viability
CC(=O)c1cc2c(cc1NC(=O)CCCC(=O)O)OCO2	3292	-4.5	-1.4	-4.1	0.8	-14.8	0.3
C=CCNC(=O)CSc1nnc(-c2ccc(S(=O)(=O)N3CCCC3)cc2)n1C	3645	-13.7	-7.8	6.7	2.4	-33.5	-3.7
O=S(=O)(c1ccc(SCCO)nc1)N1CCCC1	3511	8.8	12.4	2.8	3.5	-13.7	0.3
CCOc1ccc(NC(=O)CN(C)C(=O)C2CC(=O)N(c3ccc4c(c3)OCCO4)C2)cc1OCC (configuration not stated)	6702	-0.9	-6.4	6.6	3.0	-44.2	3.4
COc1ccc(C(C)=NNc2nc(-c3ccccc3)cc(=O)[nH]2)cc1	nt	-7.5	-7.2	-4.6	1.6	nt	nt
O=C(CCC(=O)Nc1ccccc1)NN=Cc1ccncc1	nt	-6.4	5.2	5.4	1.2	nt	nt
CCC(=O)OCCn1c(Br)nc2c1c(=O)[nH]c(=O)n2C	3444	2.7	-6.5	4.1	0.3	-22.2	-14.7
Cc1ccc(N=c2c([N+](=O)[O-])nn(-c3ccc4c(c3)OCCO4)n2O)cc1F	2227	15.6	5.9	5.8	-16.7	6.4	-1.8
CNC(=S)N1CCN(c2nc(-c3ccc(F)cc3)cs2)CC1	4119	9.9	-16.4	14.7	-9.4	-34.3	5.7
O=C(Nc1cccc(NC(=O)c2ccco2)c1)c1ccc([N+](=O)[O-])cc1	4150	-4.2	0.6	4.2	3.5	-7.5	2.2
O=C(c1cc2ncc(CCCl)cn2n1)N1CCCCCC1	2208	0.4	0.9	5.9	1.5	-36.9	-16.2
Cc1oc(-c2ccc(Cl)cc2)nc1CS(=O)CC(=O)NC(C)c1ccccc1 (configuration not stated)	6035	2.3	6.4	-0.1	-6.1	-14.7	-9.9
CC(CCc1ccccc1)NC(=O)COC(=O)c1cccc(N(C)C)c1 (configuration not stated)	3912	8.0	0.2	-1.5	-4.8	-23.1	11.3
CCNC(=O)/C(=C\c1ccc2c(c1)OCO2)NC(=O)c1ccc(Br)cc1	9125	7.4	5.5	35.9	14.7	-60.5	-4.3
Cn1c(NCc2c(O)ccc3ccccc23)nc2ccccc21	6053	23.5	25.9	12.0	-6.6	-18.0	-4.0
COc1cc(C=NN(C)C2=NS(=O)(=O)c3ccccc32)cc(OC)c1OC	nt	-6.6	3.2	0.6	5.5	nt	nt
O=C(c1cccc(S(=O)(=O)N2CCN(c3ccc(F)cc3)CC2)c1)N1CCN(c2ccccc2O)CC1	?	-3.0	5.8	-12.9	5.4	4.7	nt
CCOC(=O)c1c(C)[nH]c(C(=O)CC(=O)OC)c1C	2607	-0.3	-0.1	-1.6	-1.0	-12.4	-4.9
C[C@H](CO)N1C[C@H](C)[C@@H](CN(C)S(=O)(=O)c2cn(C)cn2)Oc2ccc(NC(=O)NC3CCCCC3)cc2C1=O	3656	-9.5	4.7	11.0	4.0	6.5	nt
COc1ccc(N2CCN(c3nc(-c4cccs4)nc4ccccc34)CC2)cc1	4433	-1.2	13.3	-1.0	4.3	1.7	nt
O=C(COc1ccc(Cl)cc1)Nc1cccc(-c2ccc3nncn3n2)c1	5899	9.0	-4.1	4.6	0.3	-11.6	-6.8
CC(=O)Cc1nsc(NC(=O)c2ccc(-c3ccc(F)cc3)o2)n1	4157	5.0	8.0	8.1	11.3	-14.5	3.0
CN(C)c1ccc(NC(=O)C2C3C=CC(C3)C2C(=O)O)cc1 (configuration not stated)	3571	-14.5	6.1	-6.7	1.2	-20.1	-1.6
CCCC(O)=C1C(=O)CCCC1=NCCCCCC(=O)O	nt	-20.8	-8.1	-3.8	1.3	nt	nt
CCOC(=O)Cc1nnc(NC(=O)C23CC4CC(CC(C4)C2)C3)s1	6687	12.4	10.7	2.6	1.5	-9.6	-14.8

Molecules listed so far with an aryl thioether with sulfur outside any ring:
SMILES	Bead autofluor	Mtb hypoxia rep	Mtb hypoxia rep growth	ugtP null kill	RN4220 kill	PrP UTR inh	BJeLR viability
C=CCNC(=O)CSc1nnc(-c2ccc(S(=O)(=O)N3CCCC3)cc2)n1C	3645	-13.7	-7.8	6.7	2.4	-33.5	-3.7
O=S(=O)(c1ccc(SCCO)nc1)N1CCCC1	3511	8.8	12.4	2.8	3.5	-13.7	0.3

More records.
SMILES	Bead autofluor	Mtb hypoxia rep	Mtb hypoxia rep growth	ugtP null kill	RN4220 kill	PrP UTR inh	BJeLR viability
COc1ccc(N(C(=O)c2ccco2)S(=O)(=O)c2ccccc2)cc1	11124	-2.6	4.5	-1.6	8.1	-4.1	-2.9
CCC(=O)N1CCN(c2nc(-c3ccccc3)c3c(c2C#N)CCCC3)CC1	7887	4.6	-4.9	-10.2	6.8	-33.4	-5.7
CC(=O)CC1=NC(C)(C)Cc2ccccc21	2161	-3.5	6.4	6.2	2.9	-31.8	2.3
COc1ccc2[nH]c3c(c2c1)CCN1C(=O)C(CC(=O)NC(C)(C)C)C[C@H](C(=O)N2CCOCC2)[C@@]31CCC1CCCC1 (some centres not stated)	3870	-6.9	5.2	-4.6	7.1	-14.8	nt
CCCCNC(=O)O[C@@H]1C[C@H]2CCCC(=O)N3CC[C@@H](C1)[C@@H]23	3595	nt	nt	nt	nt	-31.7	-2.2
Cc1ccc(N2CC(C(=O)NN=Cc3sccc3C)CC2=O)cc1 (configuration not stated)	nt	5.3	12.9	3.1	5.7	nt	nt
Cn1c(N2CCN(C(c3ccccc3)c3ccccc3)CC2)nc2ccccc21	3033	8.2	4.2	11.7	-8.3	-8.9	-6.2
CCN(CC)C(=S)Nc1ccc(Cl)c(Cl)c1	2389	nt	nt	nt	nt	-0.9	0.5
CS(=O)(=O)N(CC(=O)N1CCN(c2ccccc2)CC1)c1ccccc1Cl	10418	6.7	5.5	6.2	1.2	-6.5	5.6
O=C(NC(=S)Nc1ccccn1)c1ccc([N+](=O)[O-])cc1	3135	6.0	6.5	6.9	4.6	-52.5	-7.5
C=CCn1c(CNc2ccc(C)cc2)nnc1SCC(=O)N/N=C/c1ccc(O)cc1O	4755	nt	nt	nt	nt	-12.1	-10.3
CC(=O)N1CCC2(CC1)CC(=O)c1cc(OCC(=O)NCc3ccco3)ccc1O2	10962	2.6	-4.0	9.1	2.5	-28.0	11.1
O=[N+]([O-])c1ccc(N2CCN(c3cccc(Cl)c3)CC2)cn1	5853	5.1	-2.8	2.0	2.5	-32.5	-2.9
NC(=O)CCN1CCCCC1	3126	9.5	7.7	-4.9	7.2	-14.6	17.0
COc1ccc(C(=O)/C=C/c2ccccc2F)c(OC(=O)c2ccc([N+](=O)[O-])cc2)c1	2631	5.9	7.6	30.9	2.6	-73.3	-4.7
C#CC1(O)CCCC2C3CCC4CC(OC(C)=O)CCC4(C)C3C(=O)CC21C (configuration not stated)	3514	19.7	9.8	5.1	1.0	-42.2	nt
CCOc1ccc2ncc(S(=O)(=O)c3ccccc3)c(N3CCN(c4ccc(OC)cc4)CC3)c2c1	2568	1.6	-2.9	0.9	2.4	-34.0	-23.5
COC(=O)NN=Cc1cn(CCOc2ccccc2OC)c2ccccc12	nt	3.5	-3.9	2.7	7.2	nt	nt
COC(=O)C1SCC2C(=O)N(Cc3ccccc3)CC(=O)N21 (configuration not stated)	3681	7.7	7.2	-7.2	4.8	-14.6	-6.9
CCOC(=O)[C@@H]1[C@H]2COc3cc(OC)ccc3[C@H]2N2C(=O)N(c3ccc(C)cc3)C(=O)[C@@]12C	3440	13.1	8.5	-10.0	-9.5	-22.1	-4.7
CCN1CCN(CCNC(=O)CCc2c(C)c3c(C)nn(-c4ccccc4)c3n(C)c2=O)CC1	5140	2.0	1.5	2.6	4.5	7.2	0.7
O=c1cc(CSc2ccc(Cl)cc2)nc(N2CCCCC2)[nH]1	6200	8.6	2.7	5.4	6.9	1.1	-0.1
Cc1ccn(CC(=O)N2CCCC(N3CCN(c4ccccc4F)CC3)C2)n1 (configuration not stated)	5947	16.2	5.2	1.8	1.3	-18.8	3.1
CCCN1CCC(=O)N([C@H](CSc2ccc(Br)cc2)c2ccccc2)CC1	4426	nt	nt	nt	nt	-28.9	2.8
COc1ccc2[nH]c3c(c2c1)CCNC3=O	3487	-0.8	1.7	0.7	5.8	-4.6	4.9
(list continues)
SMILES	Bead autofluor	Mtb hypoxia rep	Mtb hypoxia rep growth	ugtP null kill	RN4220 kill	PrP UTR inh	BJeLR viability
O=C(CSc1ccccc1)Nc1nnc(COc2ccc(Cl)cc2)s1	9448	10.7	1.0	-1.1	7.2	-15.8	2.7
COC(=O)c1ccccc1CON1C(=O)C(C)(C)N(OCc2ccccc2C(=O)OC)C(=O)C1(C)C	16139*	17.9	3.4	9.8	4.8	-4.3	-13.2
Cn1c(-c2ncc(F)cc2F)cc2onc(-c3c(F)cccc3Cl)c2c1=O	3856	15.5	10.0	6.6	6.6	-55.4	nt
N#Cc1c(SCc2c(Cl)cccc2Cl)nc(N)[nH]c1=S	3485	-6.3	9.1	23.0	3.7	-20.1	nt
O=C(Cn1nnc(-c2ccc3c(c2)OCO3)n1)NCc1ccccc1	4311	-10.1	7.6	-1.6	-0.7	-23.6	nt
CS(=O)(=O)N(CC(=O)NCc1ccco1)c1ccc2c(c1)OCO2	5404	8.7	14.0	12.8	5.2	-20.5	-5.0
CCN(CC)S(=O)(=O)c1ccc(N=Nc2c(C)[nH]n(C(N)=S)c2=O)cc1	2360	8.3	6.7	-4.6	3.3	-46.8	-0.8
Cc1nnc(NC(=O)CCCN2C(=O)c3ccccc3C2=O)s1	5738	3.8	-7.2	10.9	5.6	0.4	3.4
Cc1ccc(O)c(NC(=O)c2cc(C)no2)c1	3630	3.5	5.1	6.9	-1.4	-3.8	-2.0
CCOC(=O)c1[nH]c(C=O)c(C(=O)OCC)c1C	3441	8.3	1.0	7.9	7.2	43.4	15.5
CCOc1ccc(S(=O)(=O)n2nc(C)cc2C)c2ccccc12	5926	12.4	10.7	-19.4	4.0	7.4	9.7
C=CCNC(=O)/C(=C\c1ccc([N+](=O)[O-])cc1)NC(C)=O	4476	nt	nt	4.3	1.8	-9.0	-3.3
CCCn1c(C)cc(C(=O)COc2ccc(S(=O)(=O)N(CC)CC)cc2[N+](=O)[O-])c1C	6967	0.6	2.9	9.8	4.7	-21.2	2.2
CC(C)C(=O)Nc1cccc(C(=O)Nc2nncs2)c1	4346	-0.8	8.2	-6.2	5.3	-29.5	1.1
CCNC(=O)CC1C(=O)N(c2ccccc2)C(=O)N1CCC(C)C (configuration not stated)	2158	nt	nt	1.1	5.2	-12.5	-12.2
Cc1ccc(Oc2nccc(-c3ccc(Cl)cc3)n2)cc1	3222	3.0	3.3	-0.6	-12.9	-38.2	2.9
CC(CN1CCCCC1)OC(=O)c1ccc(Cl)cc1Cl (configuration not stated)	3505	17.9	6.1	-0.5	-6.9	-10.1	-7.2
C=CCn1c(O)c(C(C)=Nc2cccc(C(F)(F)F)c2)c(=O)[nH]c1=O	?	16.2	3.5	17.9	0.2	-28.9	-6.2
O=C(c1ccco1)N1CCN(C(=O)c2ccccc2OC(=O)C23CC4CC(CC(C4)C2)C3)CC1	3247	1.0	3.3	-7.3	-6.5	-7.3	-3.5
O=C1NC(=S)N/C1=C/c1cccc2ccccc12	3526	-2.0	8.5	-9.4	6.5	-16.6	4.0
Cc1ccc(C)c(OC(=O)c2cncc(Br)c2)c1	8102	nt	nt	nt	nt	-4.5	13.0
CC1Cc2ccccc2N1S(=O)(=O)c1cccs1 (configuration not stated)	11759	-2.2	2.4	-8.5	9.8	-18.2	0.3
COc1ccc(C(=O)c2c3ccc(OC)cc3[n+]([O-])n2Cc2ccc(C(N)=O)cc2)cc1	2886	3.3	8.1	-16.7	5.1	-30.4	nt
Cc1ccc(S(N)(=O)=O)cc1NC(=O)C1CC2CCC1C2 (configuration not stated)	11658	8.1	-1.1	10.7	2.9	-18.9	7.3
CCOC(=O)C(C)On1c(-c2cccc(Cl)c2)nc2ccc([N+](=O)[O-])cc21 (configuration not stated)	3287	17.2	7.1	-5.9	-5.6	-41.5	-1.6
Cc1cc(NC(=O)CSc2nnc(Nc3ccccc3)s2)no1	3425	nt	nt	nt	nt	-8.4	3.4
